Screening data deposited in PubChem by Center for Chemical Genomics, University of Michigan.
CDC25B-CDK2 inh – human CDC25B-CDK2/CyclinA binding inhibition | P30305+P24941 | HTRF CDC25B-CDK2/CyclinA binding, anti-His/anti-Flag; hits give high values | z-score (test concentration not listed) | 0.72% of 94,000 active;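 also: score is relative to mean and SD of negative controls; strong numbers were not always called active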
HIV TAR-Tat – HIV-1 TAR-Tat binding disruption; HIV-1 TAR RNA, Tat peptide displacement FRET; hits give high values; z-score (no concentration beside the values); 0.6% of 100,000 active;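 also: score is relative to mean and SD of negative controls; some compounds called inactive have numbers as strong as hits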
The depositor's hits bear a star; . = no result given.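 The calls were made as follows: active = z-score from 3 up in half or more of its runs; inactive = the rest.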

SMILES | CDC25B-CDK2 inh | HIV TAR-Tat
CCOC(=O)NC(O)C(=O)c1ccc(F)cc1 (configuration not stated) | -1.23 | -0.96
Cc1cc(-n2nc(C)cc2C)n2nc(-c3ccccc3)c(C)c2n1 | -1.36 | 0.07
O=C(Nc1ccc(Cl)cn1)c1cc2c(s1)-c1ccc(Cl)cc1S(=O)(=O)C2 | -0.06 | 2.92
CSc1nnc(NC(=O)c2cc(=O)c3ccccc3o2)s1 | -1.21 | -0.3
COc1cccc(-c2n[nH]c3c2C(c2cc(OC)ccc2OC)NC3=O)c1 (configuration not stated) | 1.9 | 1.33
CCc1nn(CCCC(=O)NCc2cccs2)c(=O)c2cc3oc(C)cc3n12 | -1.57 | 1.63
Cc1oc(-c2cccs2)cc1C(=O)O | -0.27 | .
Cc1cc2cc(CCNC(=O)c3ccc(S(=O)(=O)N4CCOCC4)cc3)c(=O)[nH]c2cc1C | -1.26 | .
Cc1cc(C)c2c(=O)c(-c3cc(C(=O)O)c4cc5ccccc5cc4n3)coc2c1 | -1.15 | .
O=C(Cn1cnc2c(nnn2-c2cccc(Cl)c2)c1=O)NCc1ccco1 | -1.61 | .
O=c1sc(N2CCN(c3ccc(Cl)cc3)CC2)nc2ccsc12 | -5.84 | -2.39
Clc1ccccc1-c1nc(-c2ccncc2)no1 | -0.62 | -0.26
Oc1ccccc1C1=NN2C(C1)c1cc(Cl)ccc1OC2c1ccsc1 (configuration not stated) | -2.38 | -3.37
Fc1ccc(CSc2ccc(-c3cccs3)nn2)cc1 | . | 0.67
O=C(CSc1ncnc2c1oc1ccccc12)Nc1nccs1 | -2.79 | .
O=C(NCc1ccco1)C1CC(c2ccc(Cl)cc2)=NO1 (configuration not stated) | -2.58 | -0.76
O=C(c1cccs1)c1nn(-c2cccc(Cl)c2)c2nc(=O)c(Cc3ccc(Cl)cc3)nn12 | -1.2 | .
Cc1nn(-c2ccc(Br)cc2)cc1-c1noc(C(=O)NCc2ccco2)n1 | . | 1.56
Cn1c(=O)[nH]c2c(=O)sc3ccccc3c21 | 1.65 | .
O=C(O)c1ccccc1C(=O)c1cccs1 | -1.82 | .
O=C1c2ccccc2NC(c2ccc(Br)cc2)N1Cc1ccco1 (configuration not stated) | -1.86 | 2.06
COc1ccc(-c2nnc3sc(CN4CCc5ccccc5C4)cn23)cc1 | . | 0.8
CCC(C(=O)NCCc1c[nH]c2ccccc12)n1nc(C)n2c(cc3occc32)c1=O (configuration not stated) | -0.83 | 0.99
CCCCNC(=O)n1c(=S)oc2cc(Cl)ccc21 | -0.07 | 1.43
Cc1cc(C)c2oc(C(=O)N(Cc3cccs3)c3ccccn3)cc(=O)c2c1 | 0.56 | -0.58
c1ccc(-c2nn3c(C4COc5ccccc5O4)nnc3s2)cc1 (configuration not stated) | -2.16 | 2.14
CCOC(=O)CC1=Nn2c(nnc2-c2ccc(C)cc2)SC1 | -0.07 | -2.9
CC(=O)/C(C=Nc1cc(C(F)(F)F)cc(C(F)(F)F)c1)=C(\C)O | -1.02 | .
Clc1ccc2nc(Nc3ccc4c(c3)OCO4)c3nncn3c2c1 | -1.32 | 0.55
COc1ccccc1OCc1nc(C#N)c(NCc2ccc3c(c2)OCO3)o1 | 0.16 | -2.2
O=c1c(NCc2ccc3c(c2)OCO3)nccn1-c1ccc(F)c(F)c1 | . | -3.14
O=C(O)CSCC(=O)N1CCCc2ccccc21 | -0.78 | .
Cc1ccc(C)c(NC(=O)N2CCCn3nc(-c4cccn4C)cc32)c1 | . | 0.84
Cc1ccc(C(=O)NCC(C)c2ccccc2)cc1NC1=NC2CS(=O)(=O)CC2S1 (configuration not stated) | . | -0.08
Cc1cc2c3c([nH]c2cc1S(=O)(=O)NC1CCCC1)CC(C)(C)CC3=O | . | 0.3
Cc1cc(C(F)(F)F)cc(NNS(=O)(=O)c2ccc(Cl)cc2Cl)n1 | -2.23 | .
COc1ccc(S(=O)(=O)Nc2cccc(-c3ccc(S(C)(=O)=O)nn3)c2)cc1OC | . | -0.37
CC1CCCCN1S(=O)(=O)c1cc2c(cc1Cl)NC(=O)CO2 (configuration not stated) | . | -3.81
COc1ccc(-n2ncc(C(=O)Nc3ccccc3Oc3ccccc3)c2C)cc1 | -1.75 | .
COc1ccc2occ(CC(=O)Nc3nnc(C(C)C)s3)c2c1 | -1.01 | 0.28
Cc1nnsc1-c1nnc(SCC(=O)c2ccc3c(c2)OCO3)n1C1CC1 | -2.86 | .
CC1(C)CC(=O)C2=C(C1)Nc1ccccc1N(S(=O)(=O)c1ccccc1)C2c1ccco1 (configuration not stated) | . | -1.76
Cc1[nH]c2ccccc2c1C1=CCN(S(=O)(=O)c2ccc(F)cc2)CC1 | -1.95 | 1.14
Cc1nnc2c3ccccc3nc(NC3CCCCC3)n12 | . | -0.53
O=C1C(=O)N(CCN2CCOCC2)C(c2cccs2)/C1=C(\O)c1ccc(F)cc1 (configuration not stated) | -3.51 | 1.01

In the list so far, six contain an aryl methoxy group:
SMILES | CDC25B-CDK2 inh | HIV TAR-Tat
COc1cccc(-c2n[nH]c3c2C(c2cc(OC)ccc2OC)NC3=O)c1 (configuration not stated) | 1.9 | 1.33
COc1ccc(-c2nnc3sc(CN4CCc5ccccc5C4)cn23)cc1 | . | 0.8
COc1ccccc1OCc1nc(C#N)c(NCc2ccc3c(c2)OCO3)o1 | 0.16 | -2.2
COc1ccc(S(=O)(=O)Nc2cccc(-c3ccc(S(C)(=O)=O)nn3)c2)cc1OC | . | -0.37
COc1ccc(-n2ncc(C(=O)Nc3ccccc3Oc3ccccc3)c2C)cc1 | -1.75 | .
COc1ccc2occ(CC(=O)Nc3nnc(C(C)C)s3)c2c1 | -1.01 | 0.28

New compounds follow
Below each SMILES: CDC25B-CDK2 inh | HIV TAR-Tat
Cc1nc(N2CCCC2)c2c(C(=O)N3CCN(c4ccccc4F)CC3)c(C)oc2n1
 : . | -0.22
O=C(Cn1c(=O)oc2cc(Cl)ccc21)N1CCOCC1
 : . | -0.65
O=S(=O)(CCN(C1CCCC1)S(=O)(=O)c1ccc(F)cc1)N1CCNCC1
 : . | 1.75
CN(C)/C=C(\C#N)C(=O)N1CCCC1
 : -1.84 | .
Cc1cc(-c2ccc(S(=O)(=O)Nc3ccc(Cl)cn3)s2)on1
 : . | 1.07
CC1CCCCC1NC(=O)CC1Oc2ccccc2NC1=O (configuration not stated)
 : -0.46 | -0.54
CCc1ccc2oc(-c3cc(N)ccc3Cl)nc2c1
 : -1.11 | 1.56
O=C(NCC1CCCO1)Nc1ccc2sc(NC(=O)C3CCCCC3)nc2c1 (configuration not stated)
 : . | 0.45
CCCCn1c(NCc2ccco2)nc2ccccc21
 : -1.59 | 0.72
COC(=O)CSCCC(=O)Nc1cc(C)on1
 : -0.68 | .
CC(C)OC(=O)COc1ccc2c(=O)c(Oc3ccccc3Cl)coc2c1
 : -3.5 | .
CCCNC(=O)N1Cc2c(sc3c2CCCC3)-n2cccc2C1c1cccs1 (configuration not stated)
 : . | -1.34
COc1cc(OC)cc(-c2nc(-c3ccc(Cl)cc3)no2)c1
 : -1.67 | .
Cn1cc(C(=O)NC2CCCCCC2)c(=O)c2cc(S(=O)(=O)N3CCCCCC3)ccc21
 : 0.01 | .
Cn1c(=O)c2c(nc(N3CCOCC3)n2C/C=C/c2ccccc2)n(C)c1=O
 : -3.55 | .
O=C(CC1(O)C(=O)N(Cc2ccccc2Cl)c2ccccc21)c1ccccn1 (configuration not stated)
 : -2.2 | 0.37
CCCCc1nn2c(=O)cc(COC(=O)CSc3ccc(Cl)cc3)nc2s1
 : . | 1.05
Brc1ccc(OCCCCCN2CCOCC2)cc1
 : -0.98 | .
CCOC(=O)c1c(N)sc2c1CC(C)(C)OC2
 : -2.09 | 0.4
Cc1csc2nc(CNS(=O)(=O)c3ccc(Br)cc3)cn12
 : -0.33 | 1.05
Cc1nn(S(=O)(=O)c2ccc(F)cc2)c(C)c1S(=O)(=O)N1CCCCC1
 : . | 0.15
COC(=O)c1cccc(NC(=O)C23CC4CC(C2)CC(C(=O)Nc2cccc(C(=O)OC)c2)(C4)C3)c1
 : -5.06 | .
O=C(NC1CCCCC1)C1=Cc2cc(Cl)ccc2OC=C1
 : -2.16 | 0.57
O=c1[nH]c2ccc(Cl)cc2c(-c2ccccc2)c1C1=NNC(c2ccco2)C1 (configuration not stated)
 : . | 0.9
O=c1cc(C(F)(F)F)[nH]c2ccc(OC(F)(F)F)cc12
 : -2.49 | .
CCCNC(=O)c1cn2c3c(ccc(Cl)c3c1=O)OCC2
 : . | 1.29
COc1ccc(NC(=O)C2=Cc3cc(Br)ccc3OC2)cc1Cl
 : . | -0.43
Cn1c(=O)c(=O)n(CC(=O)NC2CCCc3ccccc32)c2ccccc21 (configuration not stated)
 : . | 0.12
CC(C)n1c(C(O)c2ccc3c(c2)OCO3)nc2ccccc21 (configuration not stated)
 : 0.34 | 2.47
CC1CCC(NC(=O)c2csc3c2CCCC3)CC1 (configuration not stated)
 : -1.46 | 0.2
Cc1cc(-c2ccc(C)c(S(=O)(=O)N3CCCC(CN4CCc5ccccc5C4)C3)c2)on1 (configuration not stated)
 : . | 1.07
CCC(C(=O)NNC(=O)c1cc(OC)c(OC)c(OC)c1)c1ccccc1 (configuration not stated)
 : -1.48 | .
Cc1ccc(C)c(CNS(=O)(=O)c2ccc(-c3cc(C)no3)s2)c1
 : . | 2.02
c1ccc(-c2nnc3ccc(N4CCCC4)nn23)cc1
 : -0.31 | 0.14
COC(=O)c1cnc2sc3ccccc3n2c1=O
 : -2.55 | 1.36
CCCN1C(SCC(=O)OCC)=NS(=O)(=O)c2ccccc21
 : . | 1.08
Fc1ccc(-c2nnc3ccc(SCc4cccnc4)nn23)cc1
 : 0.18 | .
O=C(Nc1noc2c1COc1ccccc1-2)N1CCN(c2cccc(Cl)c2)CC1
 : . | 0.28
O=C(COc1ccccc1)Nc1nnc(SCc2cc(=O)c3ccccc3[nH]2)s1
 : . | 1.05
O=c1[nH]c(-c2ccc3c(c2)OCO3)no1
 : -1.56 | 0.32
CCc1nnc(NC2=NS(=O)(=O)C(c3ccc(Cl)cc3)=C2C)s1
 : -2.72 | 2.28
O=c1c(NCc2ccc3c(c2)OCO3)nccn1-c1ccc(Br)cc1
 : . | -0.91
CCCc1cc(N2CCN(c3ccccc3)CC2)n2cnnc2n1
 : -1.88 | 3.39
Cc1cccc(CSc2nc3ccc(C)cc3[nH]2)c1
 : -1.04 | 2.65
CN(C)c1nc(OCCNC(=O)Nc2ccccc2)nc(N2CCCCC2)n1
 : -2.14 | -0.29
Cc1ccc(-c2cnc(C3CC3)o2)cc1S(=O)(=O)Nc1cccc(Br)c1
 : . | 1.78
Cc1ccc(NS(=O)(=O)c2ccc(-n3cccn3)cc2)nc1
 : . | 0.99
COCCCNc1nc(NC(C)C)c2cnn(C)c2n1
 : . | 0.56
CN(CCCNc1c(-c2ccc(Cl)cc2)c(=O)c1=O)Cc1ccccc1
 : . | -0.74
O=C(NCc1nnnn1-c1ccc(F)c(F)c1)C1CC(=O)N(c2ccccc2)C1 (configuration not stated)
 : . | 0.76
COc1ccc(NS(=O)(=O)c2cn(C)cn2)cc1OC
 : . | 0.35
CC(=O)OCc1nc2sc(C)c(C)c2c(=O)[nH]1
 : -2.12 | -0.73
CCOC(=O)c1cc(S(=O)(=O)N2CCN(C3CCCCC3)CC2)cn1C
 : -0.86 | 1.35
Cc1ccccc1CSc1nc2c(c(=O)[nH]1)C(c1cccc(F)c1F)CC(=O)N2 (configuration not stated)
 : 0.78 | 0.74
COC(=O)c1ccccc1SCC(=O)c1cccc([N+](=O)[O-])c1
 : -0.72 | .
COc1ccc(N(Cc2cc(CN3CCOCC3)cs2)S(=O)(=O)c2c(C)nn(C)c2C)cc1
 : . | 2.07
N#CC(C#N)=CNNC(=O)CNC(=O)c1ccccc1[N+](=O)[O-]
 : -0.78 | .
Cc1ccccc1C1CC(c2ccc(Br)cc2)Nc2nc(N)nn21 (configuration not stated)
 : -2.74 | 2.45
Cc1cc(C)c(C#N)c(SCSc2ccccc2)n1
 : -0.55 | 0.19
CCOC(=O)c1cc(-c2ccc(S(=O)(=O)NC(C)(C)CC)s2)on1
 : . | 2.85

More structures.
Below each SMILES: CDC25B-CDK2 inh | HIV TAR-Tat
CC1CCCCN1C(=O)CSCC(=O)Nc1nc(-c2cccs2)cs1 (configuration not stated)
 : . | 0.39
Cc1ccc2c(=O)cc(C(=O)N(Cc3ccc(N(C)C)cc3)C3CCS(=O)(=O)C3)oc2c1 (configuration not stated)
 : -2.21 | -0.4
Cc1ccc(CNS(=O)(=O)c2cc3c(cc2C)NC(=O)CO3)cc1
 : . | 1.15
CCc1ccc(S(=O)(=O)Nc2ccc(C)c(NS(C)(=O)=O)c2)cc1
 : -1.88 | .
CC(C)(C)OC(=O)N1C(C(=O)O)COC1(C)C (configuration not stated)
 : -2.1 | .
c1ccc(-n2cnc3cc(NCc4ccco4)ccc32)cc1
 : 3.31 | -0.51
O=C(C1=CCN(S(=O)(=O)c2ccc(F)cc2)CC1)N1CCN(c2ccccn2)CC1
 : -0.96 | -8.61
O=C(NC1CCCC1)N1CCN(c2nc3cc(F)ccc3n3cccc23)CC1
 : . | 0.03
Cc1nc2c(ccc3nc(NC(=O)c4ccc(S(=O)(=O)N5CCCCCC5)cc4)sc32)s1
 : -0.25 | .
CC(C)Cn1cnc2nc(CSc3ccccc3NC(=O)c3cccs3)cc(=O)n21
 : -4.47 | 0.9
COc1ccc2c(c1)[nH]c1c(=O)n(CCCN3CCCCC3C)cnc12 (configuration not stated)
 : 0.64 | 1.98

Record cards (already shown). Screens in order: CDC25B-CDK2 inh, HIV TAR-Tat
Shown for `O=C(C1=CCN(S(=O)(=O)c2ccc(F)cc2)CC1)N1CCN(c2ccccn2)CC1` : -0.96, -8.61
Shown for `Cc1ccc(CNS(=O)(=O)c2cc3c(cc2C)NC(=O)CO3)cc1` : ., 1.15

Copied from the list:
`Cc1ccc2c(=O)cc(C(=O)N(Cc3ccc(N(C)C)cc3)C3CCS(=O)(=O)C3)oc2c1` (configuration not stated) | HIV TAR-Tat: -0.4
`Cc1ccc(CNS(=O)(=O)c2cc3c(cc2C)NC(=O)CO3)cc1` | HIV TAR-Tat: 1.15
